YjeE inh = qHTS Assay for Inhibitors of YjeE; tRNA threonylcarbamoyladenosine biosynthesis protein TsaE (Escherichia coli (strain …; Potency, µM; 71,000 compounds, 0.05% hits; purified YjeE, fluorescence polarisation of a bound ADP probe; AID 605, 2007; active = well fitted falling curve; inconclusive = weaker or top-dose-only fall, or a rising curve; inactive = flat or poorly fitted curve;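 note: top concentration of the series not given in the record; excess ADP was the control for the full effect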
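Purified YjeE (10 uM) with BODIPY Texas Red-labeled ADP probe (2 uM); compounds pin-transferred, 15 min at room temperature. Binding inhibition read as decreased fluorescence polarization; ADP titration as control.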
PK Bst = Pyruvate Kinase | partly purified Bacillus stearothermophilus pyruvate kinase, luminescence ATP production; ribose 5-phosphate activator present at AC10 | Potency, µM | 51,000 compounds, 1.2% hits; in the data active means potency below about 11 µM; inconclusive means mostly about 12 µM to 25 µM; inactive means weaker than that;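 the screen sought inhibitors and activators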;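 note: potency is the fitted concentration of half-maximal effect; scaled between full activation by ribose 5 phosphate and full inhibition by luteolin; about four in five hits inhibit and the cells do not say which; series up to 57 µM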
Starred values were filed as active, the others as inactive; i = inactive; ? = inconclusive; . = no result given. Not all compounds are listed; count on the stated rates, not on these rows.

no.	SMILES	YjeE inh	PK Bst
1	CCOc1cccc(-c2nnc(SCC(=O)Nc3cccc(OC)c3)n2N)c1	i	>57
2	Cc1nc2ccccc2n1-c1nc(-c2ccco2)cc(C(F)(F)F)n1	i	>57
3	O=C1CC(N2CCN(c3ccccc3Cl)CC2)C(=O)N1c1ccccc1 (centres undefined)	i	>57
4	O=C(c1cnn2c(C(F)(F)F)cc(-c3ccco3)nc12)N1CCCc2ccccc21	i	.
5	CCCCOC(=O)C1=C(C)Nc2ncnn2C1c1cc(OC)c(OC)cc1OC (centres undefined)	i	>57
6	COc1ccc(CNC(=O)[C@H]2C[C@@H]2[C@H](NP(=O)(c2ccccc2)c2ccccc2)c2ccccc2)cc1OC	i	.
7	COCCNc1nc(=S)[nH]c2cc(OC)c(OC)cc12	i	>57
8	N#CCCN1CCN(CCC#N)CC1	i	>57
9	COc1ccccc1CN1CCC2(CC1)CCN(C(C)=O)CC2	i	.
10	NC(=O)CCn1nc(-c2ccccc2)c2ccccc2c1=O	i	>57
11	N#Cc1c(C(F)(F)F)cc(-c2ccccc2)nc1SCc1nc(N)nc(N2CCOCC2)n1	i	>57
12	COc1ccc2[nH]c(=O)c(CN(Cc3nnnn3Cc3ccccc3)CC3CCCO3)cc2c1 (centres undefined)	i	>57

(list continues)
no.	SMILES	YjeE inh	PK Bst
13	CS(=O)(=O)N1CCc2cc(C(=O)OCC(=O)c3ccccc3)ccc21	i	.
14	c1ccc2c(CN3CCN(Cc4c[nH]c5ccccc45)CC3)c[nH]c2c1	i	.
15	COc1ccccc1Cn1c(=O)[nH]c2cccnc21	i	>57
16	O=C(NCc1ccc2c(c1)OCO2)C(c1ccco1)N(C(=O)c1csnn1)c1ccccc1 (centres undefined)	i	>57
17	Cc1ccccc1OCCNC(=O)CNC(=O)c1ccccc1O	i	>57
18	CC(=O)N1CCc2cc(S(=O)(=O)NC(C(=O)NCc3ccccc3)C(C)C)ccc21 (centres undefined)	i	>57
19	Cc1ccc(-c2nc3cnccn3c2Nc2ccc3c(c2)OCCO3)o1	i	>57
20	C=CCn1c(SCC(=O)c2ccc(CNC(C)=O)o2)nc2scc(C3CC3)c2c1=O	i	>57
21	COc1ccc(S(=O)(=O)C(C#N)c2nc3ccccc3nc2N2CCCC(C)C2)cc1 (centres undefined)	i	>57
22	O=C(Nc1ccccc1-c1ccccc1)c1ccco1	i	>57
23	CCCCn1c(SCC(=O)OCC)nnc1-c1ccoc1C	i	>57
24	COc1ccc(Nc2nc(-c3sc(N)nc3C)cs2)cc1	i	i

New compounds follow.
no.	SMILES	YjeE inh	PK Bst
25	CCN(CC)c1ccc(NC(=O)COc2ccc(C)cc2)cc1	i	.
26	CCOC(=O)c1ccc(N2C(=O)C3ON(c4ccccc4)C(c4ccco4)C3C2=O)cc1 (centres undefined)	i	.
27	COc1ccccc1Cn1c(-c2ccco2)nc2nc3ccccc3nc21	i	>57
28	NC[C@@H]1O[C@H](O[C@H]2[C@H](O)[C@H](O[C@@H]3O[C@H](CO)[C@@H](O)[C@H](N)[C@@H]3O)[C@@H](N)C[C@H]2N)[C@@H](O)[C@H](O)[C@@H]1O	i	.
29	NC(=O)c1ccccc1	i	.
30	Cc1cc(C)cc(NC(=O)N2CCC(c3nc4ccccc4o3)CC2)c1	i	>57
31	COc1ccccc1Oc1ccc(S(=O)(=O)NCc2ccccn2)cc1	i	>11.4
32	CCOc1cc(C2Nc3ccccc3C(=O)N2c2ccccc2)ccc1O (centres undefined)	i	>57
33	COc1ccc(OC)c(NC(=O)CSc2nc(C)cs2)c1	i	>57
34	O=C1N2CCCc3cccc(c32)C12Nc1ccccc1S2 (centres undefined)	i	>57
35	CCOc1ccccc1NC(=O)CSc1nnc(-c2ccccc2Cl)n1Cc1ccco1	i	>57
36	Cn1c(SCC(=O)OC2CCCCC2)nnc1-c1ccc2c(c1)OCO2	i	>57

(next part)
no.	SMILES	YjeE inh	PK Bst
37	Cc1cc(NC(=O)CCC(=O)N(c2ccccc2)C(C(=O)NC2CCCC2)c2ccncc2)no1 (centres undefined)	i	>57
38	Cc1nn(C)cc1NC(=O)CCSc1nc(-c2ccco2)cc(C(F)(F)F)n1	i	>57
39	Cc1cccc(C)c1OCc1nnc2c3cnn(C)c3ncn12	i	>57
40	c1ccc2c(c1)CCN(Cc1nnnn1Cc1ccc3c(c1)OCO3)C2	i	>57
41	COc1cccc(NC2SC(=O)N(c3ccccc3)C2=O)c1 (centres undefined)	i	.
42	CN(C(=O)COc1cccc(Br)c1)C1CCS(=O)(=O)C1 (centres undefined)	i	>57
43	CCOC(=O)C1=C(C)NC(=O)CC1c1ccccc1 (centres undefined)	i	>57
44	CCCCOc1ncnc2c1[nH]c1ccccc12	i	.
45	Cc1ccc2nc(NC3=NCN(C4CCCCC4)CN3)nc(C)c2c1	i	>57
46	O=C(Nc1ccc2c(c1)OCCO2)C1CCN(S(=O)(=O)c2ccc(Br)s2)CC1	i	>57
47	CCOC(=O)C1CCN(S(=O)(=O)c2ccc3[nH]c(=O)oc3c2)CC1	i	.
48	CCCCC(=O)Nc1nn(CCC)c2nc3ccccc3cc12	i	>57

Full records, looked up by structure. Screens in order: YjeE inh | PK Bst
Cc1cc(NC(=O)CCC(=O)N(c2ccccc2)C(C(=O)NC2CCCC2)c2ccncc2)no1 (centres undefined) reads i | >57
Cc1cccc(C)c1OCc1nnc2c3cnn(C)c3ncn12 reads i | >57
CCOC(=O)C1CCN(S(=O)(=O)c2ccc3[nH]c(=O)oc3c2)CC1 reads i | .
COc1cccc(NC2SC(=O)N(c3ccccc3)C2=O)c1 (centres undefined) reads i | .
CCOC(=O)C1=C(C)NC(=O)CC1c1ccccc1 (centres undefined) reads i | >57

Next structures follow:
no.	SMILES	YjeE inh	PK Bst
49	CCOC(=O)c1[nH]c2ccc(OC)cc2c1NC(=O)CCN1CCc2ccccc2C1	.	>25.6
50	CC(C)CNC(=O)CSc1nnc(CN2CCCCCC2=O)n1-c1ccccn1	i	>57
51	COc1ccc(OC)c(-c2csc(N(Cc3ccco3)C(=O)c3cccs3)n2)c1	i	>57
52	Cn1c(SCC(=O)NCc2cccs2)nnc1-c1cccs1	i	>57
53	CCOC(=O)C1CCN(C(=O)c2ccc(Cl)c(NC3=NC4CS(=O)(=O)CC4S3)c2)CC1 (centres undefined)	i	.
54	CCc1ccc2c(COn3nnc4ccc(S(=O)(=O)N(C)C)cc43)cc(=O)oc2c1	i	>57
55	CCCCCn1c(CN(C)Cc2ccccc2)nc2c1c(=O)n(C)c(=O)n2C	i	>57
56	CCN(CC)c1ccc(C(NC(C)=O)NC(C)=O)cc1	i	.
57	CCOC(=O)C1=C(C)Nc2ncnn2C1c1c[nH]c2ccccc12 (centres undefined)	i	>57
58	CCOC(=O)N1CCC(NC2CCCCCCC2)CC1	i	.
59	COC(=O)c1cc(OC)c(OC)cc1NC(=O)CCC1CCCC1	i	>57
60	COc1ccc(N(CC(=O)NC2CCCC2)C(=O)CCC(=O)Nc2cc(C)on2)c(OC)c1	i	>57

Additional entries follow.
no.	SMILES	YjeE inh	PK Bst
61	CCOC(=O)c1[nH]c2ccccc2c1N=C(C)N(CC)CC	.	>25.6
62	O=C(CCc1nc2ccccc2[nH]1)N1CCN(C(=O)c2ccco2)CC1	i	.
63	Cc1ccc(CNC(=O)CCNS(=O)(=O)c2ccc3c(c2)c(=O)n(C)c(=O)n3C)cc1	i	>57
64	O=C(CSc1ncnc2nc[nH]c12)NCCc1ccccc1	i	.
65	O=C(Nc1ccc(Cc2ccncc2)cc1)c1ccc(S(=O)(=O)N2CCOCC2)cc1	i	>57
66	Nc1ccc(Cl)cc1/C(=N/O)c1ccccc1	.	>25.6
67	CCn1c(C)nc2cc(-c3nnc(-c4c(-c5ccccc5)noc4C)o3)ccc21	i	>57
68	Cc1ccc(S(=O)(=O)N2c3ccccc3NC(=O)C2CC(=O)Nc2ccccc2)cc1 (centres undefined)	i	>11.4
69	COC(=O)C(C)Sc1nc(-c2ccc(OC)cc2)nc2c1c(=O)n(C)c(=O)n2C (centres undefined)	i	>57
70	Cn1nnnc1SCc1cccc(CSc2nnnn2C)n1	i	>57
71	CCNc1ncc2nc(-c3cc(F)cc(F)c3)c(=O)n(CCOC)c2n1	i	.
72	COc1ccc(N2CCN(C(=O)CSc3nnc(Cn4nnc5ccccc54)n3C)CC2)cc1	i	>57

A different layout for some results above:
The line under a structure holds: YjeE inh | PK Bst
69) COC(=O)C(C)Sc1nc(-c2ccc(OC)cc2)nc2c1c(=O)n(C)c(=O)n2C (centres undefined)
 : i | >57
63) Cc1ccc(CNC(=O)CCNS(=O)(=O)c2ccc3c(c2)c(=O)n(C)c(=O)n3C)cc1
 : i | >57
65) O=C(Nc1ccc(Cc2ccncc2)cc1)c1ccc(S(=O)(=O)N2CCOCC2)cc1
 : i | >57
66) Nc1ccc(Cl)cc1/C(=N/O)c1ccccc1
 : . | >25.6

Next part
no.	SMILES	YjeE inh	PK Bst
73	NC(N)=NC(N)=Nc1c(F)c(F)c(F)c(F)c1F	i	.
74	COC(=O)N1[C@H](C)C=C[C@]1(Cc1ccccc1)C(=O)NCc1ccccn1	i	.
75	Cc1ccc(N(C(=O)C2CCC(=O)N2)C2(C(=O)NC3CCCCC3)CCCCC2)cc1 (centres undefined)	i	>57
76	CCSC(C)CC1CC(=O)CC(=O)C1 (centres undefined)	i	.
77	CCOCc1nnc(NS(C)(=O)=O)s1	i	>57
78	Clc1ccc(Cn2nnc(-c3ccc(N4CCOCC4)cc3)n2)cc1	i	>57
79	Cn1nc(C(C)(C)C)cc1C(=O)Nc1nc2c(s1)C(=O)CC(C)(C)C2	i	>57
80	O=C(Nc1ccccc1N1CCCC1)c1cccnc1	i	>57
81	O=C(c1cnc2sccn2c1=O)N1CCc2ccccc2C1	i	.
82	Cc1c(C(=O)O)oc2ccc(S(=O)(=O)N3CCCCC3C(=O)O)cc12 (centres undefined)	i	.
83	CC(Oc1ccccc1)C(=O)NC1CCN(Cc2ccccc2)CC1 (centres undefined)	i	>57
84	CS(=O)(=O)CCC(C(=O)n1nnc2ccccc21)N1C(=O)c2ccccc2C1=O (centres undefined)	.	>25.6

The results go on.
no.	SMILES	YjeE inh	PK Bst
85	Cc1cccc(CS(=O)(=O)Cc2ccc(C(=O)O)o2)c1	i	>57
86	Cc1ccc2c(C(=O)CN3CCN(c4ccccc4)CC3)c(C)[nH]c2c1	i	>57
87	CCCCNC(=O)C(c1ccc(OCC(=O)OC)c(C(=O)OC)c1)N(CCC1=CCCCC1)C(=O)CCCCCN1C(=O)NC(c2ccc(-c3ccccc3)cc2)C(C(=O)OCc2ccccc2)=C1C (centres undefined)	i	.
88	CCc1ccc(NC2=NCC(=O)N2c2ccc3c(c2)OCCO3)cc1	i	>57
89	O=C(CN1CCN(S(=O)(=O)c2ccc(F)cc2)CC1)Nc1ccc2c(c1)OCCO2	i	>57
90	COc1ccccc1N(C(=O)c1snc(C(N)=O)c1N)C(C(=O)NC1CCCC1)c1ccco1 (centres undefined)	i	>57
91	CCN(CC)c1nc(Nc2ccccc2)nc(Oc2ccc(=O)n(C)n2)n1	i	>57
92	Cc1noc(C)c1S(=O)(=O)Nc1ccc(C(=O)N2CCN(c3ccc(Cl)cc3)CC2)cc1	i	>57
93	CCOC(=O)CSc1nc2ccccc2c(=O)n1CC1COc2ccccc2O1 (centres undefined)	i	>57
94	C=C1Cn2c(nnc2-c2ccc(Cl)cc2)S1	i	.
95	O=c1cc(-c2ccccc2)c2ccccc2[nH]1	i	>57
96	Cc1c(NC(=O)c2ccccc2N)cccc1C(=O)O	i	>57

Continuation:
no.	SMILES	YjeE inh	PK Bst
97	CCOc1ccc(N2C(=O)CC(SC(=NC)Nc3cccc(F)c3)C2=O)cc1 (centres undefined)	i	.
98	CCn1nnc(-c2ccccc2NS(=O)(=O)c2ccc(C(=O)OC)cc2)n1	i	>57
99	CCOc1ccccc1C(=O)N1CCN=C1SC	i	>57
100	O=C(NCc1ccco1)c1cnn2c(C(F)(F)F)cc(-c3cccs3)nc12	i	>57
101	COC(=O)c1nc(-c2ccc(C)cc2)oc1N(C)C	i	.
102	CC1CCc2nn(CC(=O)Nc3ccc(F)cc3F)cc2C1 (centres undefined)	i	.
103	O=c1[nH]c2cc3c(cc2cc1C(c1nnnn1Cc1ccccc1)N1CCN2CCCC2C1)OCCO3 (centres undefined)	i	>57
104	O=C(O)CCCC(=O)N1CCN(c2nc(-c3ccccc3)c3ccccc3n2)CC1	i	.
105	O=C(O)c1ccc(NS(=O)(=O)Cc2ccccc2)cc1	i	.
106	CCC[C@@H]1C[C@@H](C(=O)N[C@H]([C@@H](C)O)[C@H]2O[C@H](SC)[C@H](O)[C@@H](O)C2O)N(C)C1 (some centres undefined)	.	>25.6
107	CCn1c(/N=C/c2c[nH]c3ccccc23)nc2ccccc21	i	2.69*
108	CN(CCc1ccccn1)S(=O)(=O)c1ccc2c3c(cccc13)C(=O)N2	i	>57

More records follow.
no.	SMILES	YjeE inh	PK Bst
109	O=C(Nc1ccc(Oc2ccccc2)cc1)C1CCCN(c2ncccn2)C1 (centres undefined)	i	>57
110	N#C/C(C(=O)NCc1ccco1)=C1/SC(Cc2ccc(F)cc2)C(=O)N1c1ccccc1 (centres undefined)	.	>25.6
111	Cc1ccc2c(c1)nnn2C1CCN(CC(=O)N2CCN(c3ccc(F)cc3)CC2)CC1	i	>57
112	COc1ncc2nc(-c3ccc(Cl)cc3)c(=O)n(C)c2n1	i	.
113	CN1C(=O)N(c2cccc3ccccc23)C(n2cncn2)C1(C)C (centres undefined)	i	?
114	Cc1cc(NC(=O)c2noc3c2CCc2ccccc2-3)no1	i	.
115	CC12CCC(C(=O)NCc3ccc4c(c3)OCO4)(OC1=O)C2(C)C (centres undefined)	i	>57
116	Cc1cc(C)c2cc(C#N)c(SCC(=O)NCc3ccco3)nc2c1	i	>57

Compound activity as filed in PubChem.
